# From PubChem BioAssay
# CapD inh: Bacillus anthracis CapD inhibitors, primary screen, biochemical, fluorescence intensity; purified CapD enzyme, fluorescence intensity read-out; hits give low values; some hits fall short of the stated cut; CapD gamma-glutamyltranspeptidase (Bacillus anthracis Ames Ancestor); actives 0.23% (n = 140,000); AID 492967, 2010; z-score (no concentration beside the values);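 active = z-score under -4 in either of two replicates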;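 note: stock transfer was 100 nL into about 40 µL; score is relative to mean and spread of the plate; one replicate is shown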
# AID504770: growth inhibition of E. coli YBA685, primary screen, V. cholerae RctB inhibitors. actives 0.27% (n = 130,000). E. coli YBA685 rctB-dependent plasmid, OD600 growth, 3 h; hits give low values. z-score (test concentration not listed);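 active = z-score under -2 on both plates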;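 note: wells of about 30 µL received 100 nL stock; score is relative to mean and SD of the test wells; the first replicate is given; strong numbers were not always called active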
# Active calls of the source: *; i = inactive; . = no result given. Not all compounds are listed. The share of hits here may be higher or lower than overall.
SMILES,CapD inh,AID504770
CCOc1ccc([C@H]2[C@@H]3CN(Cc4ccccc4)CC=C3C(C#N)=C(N)C2(C#N)C#N)cc1,1.1,-0.25
O=C(O)c1cccc(S(=O)(=O)Nc2ccccc2Cl)c1,-0.43,0.05
Nn1cnn2c(SCC(=O)Nc3nnc(SCC(=O)Nc4ccc(Cl)c(Cl)c4)s3)nnc12,-0.46,.
OCCNc1nc2nc(Cl)nc(N3CCCCC3)c2n1Cc1ccccc1,0.35,.
Cc1cccc(NC(=O)C2NC(=O)CC2c2ccccc2)c1C (stereo not given),-0.15,1.9
CCOC(=O)N1CCC(NS(=O)(=O)c2ccc(C)cc2)CC1,0.95,-0.4
COC(=O)c1sccc1N1C(=O)Nc2ccccc2N1O,-0.96,0.45
Cc1nnc(N2CCN(c3ccccc3)CC2)c2c1nnn2Cc1ccccc1,1.6,0.25
O=C(NS(=O)(=O)c1ccc(Cl)cc1)c1ccccc1,.,-0.15
CCn1c(CN(C)C2CCCCC2)nc2ccccc21,.,1.2
CCn1c(Cc2ccccc2)nnc1SCC(=O)c1ccc(S(C)(=O)=O)cc1,.,-1.2
CCn1cc(Br)c(C(=O)NC(C)c2ccccc2)n1 (stereo not given),-0.2,1.9
CCN(c1ccccc1)c1nc2nonc2n2c(C)nnc12,-0.43,.
O=S(=O)(c1ccc(F)cc1)N1CCc2ccccc2C1,1.3,0.35
Cc1c(O)ccc2c3c(c(=O)oc12)CCCC3,38,.
CCCC(=O)Nc1ccc(-c2nc3cc4ccccc4cc3[nH]2)cc1,-0.55,-1
COC(=O)c1ccc(Nc2nc(-c3ccccc3O)nc3ccccc23)cc1,-0.19,.
CC(C)c1ccc(NC2=NC(C)(C)CS2)cc1,-1.1,1.1
CN(C(=O)C1CC1C(=O)O)C1CCN(Cc2ccccc2OCc2ccccc2)C1 (stereo not given),-0.2,.
O=C(Oc1ccc(Cl)cc1)c1ccc2snnc2c1,.,-0.15
COc1ccc(O)c(C(=O)c2cnc(/N=C(\N)Nc3cc(Cl)cc(Cl)c3)nc2)c1,.,0
Cc1nc(N2CCN(c3ccccn3)CC2)c2c(C)c(C(=O)N3CCN(c4ccccc4F)CC3)sc2n1,0.2,.
CCN(Cc1cc2ccccc2[nH]c1=O)C(=O)c1cccnc1,.,-0.8
COc1cccc(C(=O)N/N=C/c2c(C)nn(-c3ccccc3)c2C)c1,0.22,.
CSC(=NC#N)N1CCN(c2ccc(C(F)(F)F)cc2[N+](=O)[O-])CC1,-0.26,.
CCN(C(=O)C1CCN(c2nc(-c3ccc(OC)cc3)no2)CC1)c1ccccc1,-0.14,-0.65
O=c1cc(-c2ccccc2)nc2scc(-c3ccccc3)n12,0.71,-0.45
CC(=O)Nc1ccc(OCC(O)CN2CCc3ccccc3C2)cc1 (stereo not given),-0.15,-0.2
CC(C)(C)c1ccc(Cn2c(=O)n(Cc3ccc4c(c3)OCO4)c(=O)c3ccccc32)cc1,0.56,0.05
CCN1CCCC1CNC(=O)Cn1ncc2c3ccccc3n(Cc3ccccc3C)c2c1=O (stereo not given),31,-0.1
Cc1cc(C)nc(NC2=NCC(=O)N2c2cc(Cl)cc(Cl)c2)n1,-0.33,.
CC(=O)Nc1ccc(C(=O)OCc2cccc(F)c2)cc1,-0.2,1.6
C=CCOc1ccc(/C=C2\C(=O)N(c3ccc(S(N)(=O)=O)cc3)N=C2C(F)(F)F)cc1OC,0.38,-0.4
CCOC(=O)N1CCN(C(=O)c2sc3ncn(CC(=O)Nc4cccc(C(F)(F)F)c4)c(=O)c3c2C)CC1,0.015,.
CCN(CC)c1ccc(/C=N/N=C(\N)c2nonc2N)cc1,-3.7,-0.35
N#CC1=C(N)OC2=C(C(=O)OC2)C1c1c(Cl)cccc1Cl (stereo not given),.,-0.05
Cc1nn(C)c(C)c1Cc1c(F)cccc1Cl,-0.43,-0.4
Cc1cnn(-c2cc(Oc3ccccc3)ncn2)c1,0.72,2
CCC(C)C(=O)N1CCCC(c2nc(-c3cccs3)no2)C1 (stereo not given),.,1.2
CCN(CC)CC(O)Cn1c(-c2ccc(OC)cc2)cc2ccccc21 (stereo not given),3.3,0.5
O=C(c1ccco1)N1CCN(CC(=O)N(C2CCCCC2)C2CCS(=O)(=O)C2)CC1 (stereo not given),.,-0.25
O=C(/C=C/c1ccco1)OCc1cc(=O)n2c(n1)sc1ccccc12,.,-0.85
O=C(NCCN1CCN(Cc2ccccc2)CC1)c1cc(=O)[nH]c2ccc(S(=O)(=O)N3CCCC3)cc12,-0.32,0.55
Fc1nc(F)c(F)c(Oc2c(F)c(F)c3c(F)c(F)c(F)c(F)c3c2F)c1F,0.32,-0.1
CC(C(=O)NNC(=O)OCc1cccc(OCc2ccccc2)c1)n1nnc(N2CCOCC2)n1 (stereo not given),-0.88,.
COc1cc(C)cc(CN2CCN(S(=O)(=O)/C=C/c3ccccc3)CC2)c1O,.,0.3
CCOc1ccc(/C=C2/SC(=Nc3ccccc3Cl)NC2=O)cc1,-0.97,.
Cc1cc(C)c(C#N)c(Cl)n1,0.57,0.15
Cc1cc2ccccc2n1CC(=O)N(C)CCc1cn[nH]c1,.,-0.45
CCOC(=O)c1cc(C#N)c(=S)[nH]c1-c1ccccc1,6.5,1.9
COc1ccc(C(=O)Nc2ccc(Sc3nc(C)cc(C)n3)cc2)cc1,-0.43,.
COc1cc(/C=C2\C(=O)C3CCN2CC3)cc(OC)c1OC,-1.6,.
NC(=O)c1ccccc1OC1CCC1,0.3,-1
O=S(=O)(c1ccc(Cl)nc1)N1CCCCC1,-0.32,0.55
CCC(=O)Nc1ccc2nc(SCC(=O)Nc3ccc(C(C)=O)cc3)sc2c1,0.065,.
COc1cc2oc(=O)cc(C)c2cc1OC,55,1.1
O=C(c1nn2c(C(F)(F)F)cc(-c3cccs3)nc2c1Cl)N1CCCc2ccccc21,-1.5,0.15
CC(C)(C)NC(=S)Nc1cccc(C(F)(F)F)c1,.,-0.25
CCN(CC)C(=S)NC1CCCCC1,0.54,0.55
O=C1OC2(CCCC2)OC(=O)C1=CNc1ccccc1,.,0.8
# Additional records follow.
SMILES,CapD inh,AID504770
Cc1ccc(Nc2cc(N3CCCCC3)c3noc4c3c2C(=O)c2ccccc2-4)cc1,-0.59,.
CCCNCC(=O)Nc1ccc2c(c1)OCO2,.,0.25
COC(=O)c1c(NC(=O)COc2ncnc3c2cnn3-c2ccccc2)sc2c1CCC2,.,0
CS(=O)(=O)c1ccc(NC(=O)CSCc2ccc(F)cc2)cc1,.,1
COC(=O)C1C(=O)C2=C(CC1C)Nc1ccccc1NC2c1c[nH]c2ccccc12 (stereo not given),-2.5,0.15
CN(C)CCCN1C(=O)CSC1c1ccccc1 (stereo not given),.,0.95
Nc1ccccc1OCCOCCOc1ccccc1N,0,-0.65
CCOc1ccccc1NC(=O)CC#N,-0.35,-1.4
Cc1ccc(C)c(C(=O)NCCc2ccccn2)c1,.,-0.55
Cc1oc(-n2cccc2)c(C#N)c1C,0.14,0.85
CC(Oc1ccccc1F)C(=O)NCCN1CCCCC1 (stereo not given),0.2,-1.1
O=C(CCC(=O)N1CCCC1)Nc1ccc(F)cc1,-0.47,-0.2

# 2 records drawn at random from those above:
SMILES,CapD inh,AID504770
CS(=O)(=O)c1ccc(NC(=O)CSCc2ccc(F)cc2)cc1,.,1
Cc1oc(-n2cccc2)c(C#N)c1C,0.14,0.85

# Later entries:
SMILES,CapD inh,AID504770
CCOC(=O)C1Cn2c(nc3c(c2=O)C(C)(C)Cc2ccccc2-3)S1 (stereo not given),1.3,.
O=C(NC1CCCCC1)C(c1cccs1)N(Cc1cccs1)C(=O)c1cccs1 (stereo not given),.,-0.3
O=C(O)CSc1ncccc1[N+](=O)[O-],-0.92,.
Cc1ccc(N=c2ssc3c2-c2cc(C)c(C)cc2NC3(C)C)cc1,-0.43,.
CCOC(=O)c1csc(NC(=O)c2sc3ccccc3c2Cl)n1,i,-0.65
O=C(O)C1CCCN1C(=O)C12CC3CC(CC(C3)C1)C2 (stereo not given),.,-0.8
CCOC(=O)c1nn(-c2ccc(C)cc2)c(=N)s1,-2,-0.45
COCC(C)NS(=O)(=O)c1ccccc1 (stereo not given),.,-0.2
COc1ccc(-c2noc(CSCC(=O)Nc3ccc(C(C)C)cc3)n2)cc1OC,-0.72,-1.1
O=C(Nc1ccccc1)Nc1nc(-c2ccco2)cn1/N=C/c1ccccc1,-0.34,.
Cn1c(C(=O)N2CCc3ccccc32)cc2sccc21,.,0.05
Cc1ccc(S(=O)(=O)NCc2nnc(NC(=O)c3ccc(Br)cc3)s2)cc1,0.54,.
O=C(CSc1nc2ccc(NC(=O)c3ccc(Cl)cc3Cl)cc2s1)NCC1CCCO1 (stereo not given),0.57,.
CSc1nc(N)n2nc(-c3cccs3)cc2n1,0.17,-0.35
O=c1oc(-c2c(Cl)cccc2Cl)ns1,0.15,.
COc1ccc(-c2noc(CC(=O)N(C)CCC#N)n2)cc1,5.4,-0.8
COc1ccc(CC(=O)Nc2ccc(-c3nnc(-c4ccc(C)cc4)o3)cc2)cc1,53,-0.4
COc1ccc(C2Nc3ccccc3C(=O)N2c2ccc(C)cc2)cc1CN1C(=O)c2ccccc2C1=O (stereo not given),0.48,.
c1ccc(Cn2nnnc2CN2CCCC2)cc1,.,-0.15
Cc1cc2n(n1)c1cc(C)nn1c1cc(C)nn21,0.065,-0.8
CCN1CCS/C1=C\C=C\C1=[N+](CC)CCS1,0.51,0.75
Cc1ccc2nc(C)cc(C(=O)O)c2c1,.,-0.4
CCC(=O)N1c2ccccc2NC2=C(C(=O)CC(c3cccc([N+](=O)[O-])c3)C2)C1c1ccc(C)cc1 (stereo not given),-1,.
CCOC(CN(C(=O)c1ccc(C)cc1)c1ccc(F)cc1)OCC,-0.2,.

# Part of the list above, reformatted:
structure	CapD inh	AID504770
CCOC(=O)c1csc(NC(=O)c2sc3ccccc3c2Cl)n1	i	-0.65
O=C(O)C1CCCN1C(=O)C12CC3CC(CC(C3)C1)C2 (stereo not given)	.	-0.8
CCOC(=O)c1nn(-c2ccc(C)cc2)c(=N)s1	-2	-0.45
COCC(C)NS(=O)(=O)c1ccccc1 (stereo not given)	.	-0.2
COc1ccc(-c2noc(CSCC(=O)Nc3ccc(C(C)C)cc3)n2)cc1OC	-0.72	-1.1
O=C(Nc1ccccc1)Nc1nc(-c2ccco2)cn1/N=C/c1ccccc1	-0.34	.
Cn1c(C(=O)N2CCc3ccccc32)cc2sccc21	.	0.05
Cc1ccc(S(=O)(=O)NCc2nnc(NC(=O)c3ccc(Br)cc3)s2)cc1	0.54	.
O=C(CSc1nc2ccc(NC(=O)c3ccc(Cl)cc3Cl)cc2s1)NCC1CCCO1 (stereo not given)	0.57	.
CSc1nc(N)n2nc(-c3cccs3)cc2n1	0.17	-0.35
O=c1oc(-c2c(Cl)cccc2Cl)ns1	0.15	.
COc1ccc(-c2noc(CC(=O)N(C)CCC#N)n2)cc1	5.4	-0.8
COc1ccc(CC(=O)Nc2ccc(-c3nnc(-c4ccc(C)cc4)o3)cc2)cc1	53	-0.4
COc1ccc(C2Nc3ccccc3C(=O)N2c2ccc(C)cc2)cc1CN1C(=O)c2ccccc2C1=O (stereo not given)	0.48	.
c1ccc(Cn2nnnc2CN2CCCC2)cc1	.	-0.15
Cc1cc2n(n1)c1cc(C)nn1c1cc(C)nn21	0.065	-0.8
CCN1CCS/C1=C\C=C\C1=[N+](CC)CCS1	0.51	0.75

# The listing continues.
SMILES,CapD inh,AID504770
Nc1c(C(=O)N2CCCCC2)sc2nc(-c3cccs3)cc(C(F)(F)F)c12,-1.1,1
COc1ccc(CC(=O)OCC(=O)N2CCN(S(=O)(=O)c3ccc(C)cc3)CC2)cc1,.,-0.85
CCN(CC)CCNc1c(N)c(=O)oc2ccccc12,2.5,-0.15
O=c1c2c3c(sc2nnn1Cc1ccccc1F)CCCC3,-0.17,-0.5
O=C(NC1=NCCS1)C1CCN(S(=O)(=O)c2ccc(Cl)cc2)CC1,.,-0.35
Cc1ccsc1C1CC(=O)NC(SCC(=O)OCc2ccccc2)=C1C#N (stereo not given),-0.58,1.4
O=C(O)Cc1ccccc1C(=O)N1CCC(n2c(=O)[nH]c3ccccc32)CC1,0.8,.
Cc1cccc(S(=O)(=O)N/N=c2\sc3ccccc3n2C)c1,.,0.6
COc1cc(OC)nc(CN2CCN(C=O)CC2)n1,-0.33,.
CC[N+](C)(CC)Cc1cc2ccccc2c2c1COC2,80,1.6
CCn1c(SC(C)C(=O)Nc2ccnn2C(C)C)nc2sc(C)c(C)c2c1=O (stereo not given),.,-2.7
CC1=C(C(=O)OCc2ccccc2)C(c2ccc(F)cc2F)C(C#N)=C(N)O1 (stereo not given),0.36,.
CCc1cc2c(=O)n(-c3ccccc3)c(SCC(=O)c3cccs3)nc2s1,.,2.6
COc1ccc([C@H]2NC(=O)C(=C=[N-])C(=O)[C@@H]2[n+]2ccccc2)cc1,1.8,0.45
C=CCN1C(=O)C(O)(CC(=O)c2ccccc2)c2ccccc21 (stereo not given),-1.6,2.4
Cc1cc(=O)[nH]c(NC(N)=NCc2ccccc2)n1,.,-0.35
COc1ccc(-c2oc3ncn(CCCn4ccnc4)c(=N)c3c2-c2ccc(OC)cc2)cc1,.,1.2
COc1ccc2c(c1)c(C(=O)O)c(C)n2CCc1ccc(OC)c(OC)c1,-2.2,-1
COC(=O)c1ccc(COC(=O)NNC(=O)c2ccc(-c3ccccc3)cc2)cc1,0.64,.
CNc1cc(=O)n(C)c(=O)n1C,0.36,-0.95
COc1ccc(-c2cn3cc(Cl)ccc3n2)cc1Br,15,.
O=C1c2ccccc2C(=O)N1CSc1n[nH]c(-c2ccccc2Br)n1,.,0.3
O=C(Cc1cc2ccccc2o1)NCc1ccc(F)cc1,0.075,-0.55
O=C1c2cccc3cccc(c23)C(=O)N1c1ccccc1O,-1.4,-0.5
O=S(=O)(c1ccc(Cl)cc1)N1CCSC1c1ccco1 (stereo not given),-0.34,-0.15
O=c1c2c3c(sc2ncn1Cc1ccccc1)CCCC3,-0.71,-0.75
O=C1O[C@H](C(O)CO)C(O)=C1O (stereo not given in full),.,-1.1
O=C1CNC(=S)N1Cc1cccs1,.,-1.4
